Bioassay records from PubChem BioAssay.
VDR inh = Inhibitors of the vitamin D receptor (VDR): qHTS; Vitamin D3 receptor (Homo sapiens), P11473; VDR-SRC2-3 peptide fluorescence polarization, 2 h; Potency, µM, inactives show max response, negative = inhibition, actives largely listed as inhibitors; 400,000 compounds, 0.93% hits; active means well fitted inhibition curve with a large enough effect; inconclusive means small, poorly fitted or top-dose-only effect, or another doubt; inactive means no such curve, though single readings can be large or run the other way; further: series mostly up to about 120 µM
Target sequence (P11473 whole entry, looked up): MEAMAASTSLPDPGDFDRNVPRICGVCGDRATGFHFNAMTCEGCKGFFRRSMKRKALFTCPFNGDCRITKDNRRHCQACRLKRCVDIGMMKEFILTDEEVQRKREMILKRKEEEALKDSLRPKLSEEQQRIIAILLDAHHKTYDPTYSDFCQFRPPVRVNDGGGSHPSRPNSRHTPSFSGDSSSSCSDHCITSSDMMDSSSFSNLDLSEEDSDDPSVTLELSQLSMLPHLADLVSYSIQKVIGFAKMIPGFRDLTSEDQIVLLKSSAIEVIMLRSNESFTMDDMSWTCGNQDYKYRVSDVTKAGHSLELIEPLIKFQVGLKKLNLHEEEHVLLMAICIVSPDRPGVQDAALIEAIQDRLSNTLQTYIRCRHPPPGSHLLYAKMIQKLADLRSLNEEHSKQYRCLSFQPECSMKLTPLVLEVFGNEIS
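Measured by FP: displacement of SRC2-3 coactivator peptide from VDR by library compounds, following a two-hour ambient incubation.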
The depositor's hits bear a star; ? = inconclusive; & = joins results of further samples; ! = not active in a repeat. On the % scale 0 is the no-effect control and ±100 the full control effect; potency means the concentration at half of the fitted maximal effect. An excerpt, so the mix of outcomes need not match the whole.

SMILES	VDR inh
Nc1nccc(-c2c(-c3ccc(F)cc3)ncn2C2CCNCC2)n1	-2%
CCCSP1(=S)NCCCO1 (stereo not drawn)	-4%
Cc1cc(C)nc(N2Cc3ccccc3C2=N)n1	5%
COC(=O)C1=C(c2c(C)noc2C)C[C@@H]2CC[C@H]1N2C(=O)NCCO	-1%
Cc1cccc2c1N(N=O)CCC2	7%
CCN(CC)CC(O)c1ccc(C2CCCC2)cc1 (stereo not drawn)	8%
COc1ccc(CCNCc2ccc(SC)cc2)cc1	15%
CN1C(=O)CCC2(C)C1=CCC1C2CCC2(C)C1CCC2(C)O (stereo not drawn)	-12%
CN1CCN(CCC(C#N)(c2ccccc2)c2ccccc2)CC1	1%
COc1ccccc1OP(=O)(Nc1cccnc1)Oc1ccccc1OC	-19%
O=c1oc2ccccc2c(O)c1Cc1c(O)c2ccccc2oc1=O	-24%
Cc1ccc(-c2nn(Cc3ccccc3)cc2C=O)cc1C	-10%
Cn1c(C(=O)O)c(CC(=O)N2CCN(Cc3ccccc3)CC2)c2ccccc21	-9%
COC(=O)C1=C(c2ccc(F)cc2OCc2ccccc2)C[C@@H]2CC[C@H]1N2C(=O)NC1CC1	9%
CN1C(=O)C(=Cc2ccc(N3CCOCC3)o2)C(=O)N(C)C1=S	-8%
Cc1cc(N=Nc2ccccc2C)ccc1N	0%
O=C(O)C(Cc1cnc[nH]1)NS(=O)(=O)c1ccc(Cl)cc1 (stereo not drawn)	11%
CC(=O)C1C2c3ccccc3O[C@@]1(C)N=c1s/c(=C/c3ccoc3)c(=O)n12 (stereo partly drawn)	-9%
O=C(O)CCn1cc(C=C2C(=O)NC(=S)NC2=O)c(-c2ccccc2)n1	10µM*
CCCN1CCCC2Cc3nc(N)ncc3CC21 (stereo not drawn)	-1%
CNC(=O)O/N=C(/C)SC	4%
CC(=NCC1CCCO1)c1c(O)n(-c2ccc(Cl)cc2)c(=O)[nH]c1=O (stereo not drawn)	11%
O=C(Nc1ccc(Br)cc1C(=O)c1ccccc1)c1ccccc1	-10%
CN1CCCC1c1ccc(=O)[nH]c1 (stereo not drawn)	-6%
Ic1c(C2=CCCCC2)[se]c2ccccc12	-13%
SMILES	VDR inh
CN1CCN(c2cc(N3CCNCC3)ccc2[N+](=O)[O-])CC1	9%
Cc1oc(-c2ccccc2)nc1CN1C(=O)C(C)N=C(c2ccccc2F)c2cc(Cl)ccc21 (stereo not drawn)	8%
N#Cc1ccc(NC(=O)CCNC(=O)c2ccco2)cc1Cl	0%
Cc1ccc(-n2c(/C=C/c3ccccc3)nc3ccccc3c2=O)cc1C	13%
O=c1cc(CN2CC=C(c3ccccc3)CC2)c2c(ccc3ccccc32)o1	8%
Nc1c([N+](=O)[O-])ccc(Oc2ccccc2)c1Cl	3%
CN(C)C1(c2nnnn2CCOC(=O)Nc2ccc(Cl)cc2)CCCCC1	12%
OC1(c2ccccc2F)CC2CCC(C1)N2CCN1CCOCC1 (stereo not drawn)	23%
COc1ccc(/C=N/N=C(/N)N[N+](=O)[O-])c(OC)c1	7%
C[C@H]1[C@@H](OS(=O)(=O)O)C[C@@H]2C[C@H]([C@@H](O)c3cc(=O)[nH]c(=O)[nH]3)NC3=NC[C@H]1N32	-12%
CC1=Nc2ccccc2/C1=C/c1c(O)n(C)c(=O)[nH]c1=O	-14%
O=C(O)C1(Br)CC12c1ccccc1-c1ccccc12 (stereo not drawn)	5%
CCN(CC)C(=O)N[C@H]1C=C2c3cccc4[nH]cc(c34)C[C@@H]2N(C)C1	-9%
CCOC(=O)CNC(=O)CNC(=O)C(Cc1ccc(N(CCCl)CCCl)cc1)NC(C)=O (stereo not drawn)	8%
CCCC1=Nc2cc(C(=O)NC3CCC(C)CC3)ccc2Sc2ccccc21 (stereo not drawn)	15%
COc1ccc(C(CC(=O)N2CCC3(CC2)OCCO3)NS(=O)(=O)c2ccc(C)cc2)cc1 (stereo not drawn)	0%
COc1ccc(OC)c(CN2CCCC(C(=O)c3sccc3C)C2)c1 (stereo not drawn)	-3%
C[C@]12CCC3C(CC[C@H]4C[C@H](O)CC[C@]34C)[C@@H]1CC[C@@H]2C(=O)CO (stereo partly drawn)	-10%
O=C(CN1CCN(Cc2ccc(Cl)cc2)C1=O)N1CCC2(CC1)OCCO2	8%
CC(C)N1C(=O)CCC1C(=O)N1CCC2(CC1)OCCO2 (stereo not drawn)	-10%
CCON=O	0%
Cc1cccc(-n2c(O)c(C=NCCCN3CCOCC3)c(=O)[nH]c2=O)c1C	13%
CC1CC(C)(O)CC(C(O)CC2CC(=O)NC(=O)C2)C1=O (stereo not drawn)	-10%
COCCn1c(O)c(/C=N/NC(=O)CSC(=S)N2CCCC2)c(=O)[nH]c1=S	6%
COc1ccc(C2CC(c3c(O)n(CCc4ccccc4)c(=O)[nH]c3=O)=NN2)cc1OC (stereo not drawn)	-11%
SMILES	VDR inh
O=c1c2ccccc2nc(-c2ccc([N+](=O)[O-])cc2)n1-c1ccccc1	11%
COc1ccc2c(c1)c(C(=O)O)c(C)n2C(C)C	-1%
CC(=O)c1ccc(NC(=O)N2C[C@H]3C[C@@H](C2)c2cccc(=O)n2C3)cc1	3%
CCN(c1ccc(C(O)(C(=O)OC)C(F)(F)F)cc1)S(=O)(=O)c1ccccc1 (stereo not drawn)	3%
C=CCn1c(O)c(C=Nc2c(C)n(C)n(-c3ccccc3)c2=O)c(=O)[nH]c1=O	-21%
COc1ccccc1CNC(=O)CCC(=O)N1C[C@H]2C[C@@H](C1)c1cccc(=O)n1C2	3%
CCOP(=O)(OCC)c1ccc(O)cc1	7%
O=C1NC(=O)C2(C(=O)N1)C(c1ccc(F)cc1)NC(=S)NC2c1ccc(F)cc1 (stereo not drawn)	-24%
C[C@]12CCC3C(CC[C@H]4C[C@@H](O)CC[C@]34C)C1CC[C@@H]2O (stereo partly drawn)	18%
O=C1CN=C(c2ccccc2)c2cc(Cl)ccc2N1CC1CC1	-24%
CNc1cc(Cl)c2nonc2c1[N+](=O)[O-]	35µM*
C=CCOC(Cn1ccnc1)c1ccc(Cl)cc1Cl (stereo not drawn)	-17%&0%
CN1CCc2cc3c(cc2[C@H]1[C@@H]1OC(=O)c2c1ccc1c2OCO1)OCO3	-2%
CCOc1ccc(CN2CCN(C(=O)Cc3ccccc3)CC2)cc1	-11%
Cc1cc(/C=C2\C(=O)NC(=O)N(Cc3ccco3)C2=O)c(C)n1-c1ccc(O)cc1	30%
Cn1c(O)c(C=Nc2ccc3c(c2)CCC3)c(=O)n(C)c1=O	8%
Cc1csc(=N)n1Cc1ccccc1	-12%
NS(=O)(=O)c1cccc(N2CCNCC2)c1	7%
CCOC(=O)C1=C(N)Oc2ccccc2C12C(=O)N(CC(=O)OC)C(CC(=O)OC)=C2C(=O)OC (stereo not drawn)	1%
N[C@H](CCP(=O)(O)O)C(=O)O	-2%
Cc1cc(OCC(=O)N2CCC(C(=O)NCC(C)C)CC2)c2c3c(c(=O)oc2c1)CCCC3	-9%
C=CC1CN2CCC1CC2c1[nH]c2ccccc2c1CCO (stereo not drawn)	-4%
O=C(CNC(=O)c1ccc(Cl)cc1)Nc1ccc(Br)cc1C(=O)c1ccccc1	-1%
CN(C)C(=O)Oc1ccc2oc(=O)cc(-c3cc4ccccc4o3)c2c1	7%
Cc1ccccc1-n1c(-c2ccco2)nc2ccccc2c1=O	-9%
SMILES	VDR inh
Cc1c(C(=O)N2CCC3(CC2)OCCO3)oc2ccccc12	1%
O=C1C2CCCN2C(c2cccs2)N1c1ccccn1 (stereo not drawn)	1%
C=CCNC(=O)c1c(N)n(Cc2ccco2)c2nc3ccccc3nc12	3%
Cc1ccc(/C=C2\C(=O)NC(=O)N(CCc3ccc(F)cc3)C2=O)s1	?
CCN(Cc1ccc(Cl)nc1)/C(=C/[N+](=O)[O-])NC	12%
COc1ccc(C(c2c(O)c3ccccc3oc2=O)c2c(C)n(C)n(-c3ccccc3)c2=O)cc1 (stereo not drawn)	-13%&-5%
CN1CC[C@@]2(CCCN(C(=O)Oc3ccccc3)C2)C1	-13%
Cc1cc(C(=O)N2CCC3(CC2)OCCO3)no1	1%
Cc1cnc(NC(=O)CN2CCCCC2)s1	-16%
COC(=O)c1ccc(CN2CCN(Cc3ccccc3)CC2)cc1	21%
C[n+]1c2cc(N)ccc2cc2ccc(N)cc21	25µM*!
CC1(C)OC(c2ccccc2)=C/C(=C/C=C2C(=O)NC(=O)NC2=O)O1	-8%
CCC(=O)OC(Cc1ccccc1)(c1ccccc1)C(C)CN(C)C (stereo not drawn)	5%
C/C=C1\C[C@H](C)[C@@](O)(CO)C(=O)OCC2=CCN3CC[C@@H](OC1=O)[C@@H]23	-1%
CN1C(=O)N(C)C(=O)C(CCc2ccncc2)(CCc2ccncc2)C1=O	24%
C=CCn1c(O)c(C(C)=NCc2cc(OC)cc(OC)c2)c(=O)[nH]c1=O	-4%
O=c1c2ccccc2nc(/C=C/c2ccc(O)cc2)n1-c1ccc(O)cc1	5%
CCn1c(O)c(C=NCCN2CCOCC2)c(=O)n(CC)c1=S	-9%
COC(=O)C1=C(c2ccc(F)cc2OCc2ccccc2)C[C@@H]2CC[C@H]1N2C(=O)NCc1ccc([N+](=O)[O-])cc1	-29%
COC(=O)C12C/C=C\Cc3ccccc3[C@@H]1CNC2=O (stereo partly drawn)	9%
COc1ccccc1OCC(=O)N1CCCC(N2CCN(c3ccc(F)cc3)CC2)C1 (stereo not drawn)	-7%
Cc1ccccc1-c1nc2ccccc2c(=O)n1C	?
O=C(c1cc2c(s1)CCCC2)N1CCC2(CC1)OCCO2	-1%
CCCCC[C@@H](/C=C/C=C\C/C=C\C/C=C\CCCC(=O)O)OO	-3%&-15%
CC(=O)N1CCN(CC(=O)Nc2ccc(C#N)c(Cl)c2)CC1	-6%

Taken from above (4 entries):
SMILES	VDR inh
Cc1c(C(=O)N2CCC3(CC2)OCCO3)oc2ccccc12	1%
O=C1C2CCCN2C(c2cccs2)N1c1ccccn1 (stereo not drawn)	1%
C=CCNC(=O)c1c(N)n(Cc2ccco2)c2nc3ccccc3nc12	3%
Cc1ccc(/C=C2\C(=O)NC(=O)N(CCc3ccc(F)cc3)C2=O)s1	?

Additional structures.
SMILES	VDR inh
COc1ccc(C=O)cc1	-29%
CC(C)n1nnnc1CN1CCN(C)CC1	-4%
O=C(Cc1ccccc1)N1CCN(Cc2c[nH]c3ccccc23)CC1	10%
CC(=O)OCC1=C[C@H]2[C@@H]3C(C)(C)[C@]3(OC(=O)Cc3ccccc3)C[C@@H](C)[C@]2(O)[C@@H]2C=C(C)C(=O)[C@@]2(O)C1	-2%
COC(=O)C1=C(c2ccc(S(C)(=O)=O)cc2)C[C@@H]2CC[C@H]1N2C(=O)NCC1CC1	?
Fc1ccc(CCNCc2ccccc2Cl)cc1	4%
CCCCCn1c(=O)c(C(=O)NCCc2ccccc2)c(O)c2ccccc21	-7%
CCCC/C(=N\O)c1c[nH]c2ccccc12	-15%
Cc1cccc(C2=NCC(=O)N(CC(=O)NCc3ccco3)c3sc4c(c32)CCCC4)c1	-15%
Cc1nc2ccc(Cl)cc2c(=O)n1-c1ccc([N+](=O)[O-])cc1	-6%
O=C(C(=O)N1CC=C(c2ccccc2)CC1)c1c[nH]c2ccccc12	?
NS(=O)(=O)c1ccc(-c2ccc(C=C3C(=O)NC(=O)NC3=O)o2)cc1	45µM*
Cn1c(O)c(C=Nc2ccccc2-c2ccccc2)c(=O)n(C)c1=O	5%
COc1ccc(CN2C(=O)NC(=O)/C(=C/c3ccc([N+](=O)[O-])s3)C2=O)cc1	22µM*
O=C1NC(=O)N(C2CCCCC2)C(=O)C1C1c2ccccc2C(=O)N1Cc1ccccc1 (stereo not drawn)	5%
CC(C)Oc1ccc(C2(C#N)CC[N+](C)(C)CC2)cc1	0%
COc1cccc(NC(=O)N2CCC3(CC2)OCCO3)c1	-12%
CCC(Sc1ccccc1)C(=O)OC1CC2CCC(C1)N2C (stereo not drawn)	-1%
CNC1(c2ccc(F)cc2)CCCCC1	-26%
COC(=O)C1=C(c2ccc(OCc3ccccc3)cc2)C[C@@H]2CC[C@H]1N2C(=O)NCc1ccc(N(C)C)cc1	-12%
Cc1oc(-c2ccccc2Cl)nc1CN1C(=O)CN=C(c2ccccc2)c2cc(Cl)ccc21	12%
CCOc1ccccc1N1C(=O)NC(=O)/C(=C/c2ccc3c4c(cccc24)CC3)C1=O	?
Cc1cccc(-n2c(C)nc3ccccc3c2=O)c1C	-7%
COC(=O)C1=C(c2ccc(OC)c(OC)c2)C[C@@H]2CC[C@H]1N2C(=O)N1CCC(C)CC1	15%
CC(=O)c1cn(Cc2ccc(C#N)cc2)c2ccccc12	-9%
COc1ccn(C)c(=O)c1C#N	-13%&2%

Grouped by structure, those above containing fluorine
SMILES	VDR inh
Nc1nccc(-c2c(-c3ccc(F)cc3)ncn2C2CCNCC2)n1	-2%
COC(=O)C1=C(c2ccc(F)cc2OCc2ccccc2)C[C@@H]2CC[C@H]1N2C(=O)NC1CC1	9%
Cc1oc(-c2ccccc2)nc1CN1C(=O)C(C)N=C(c2ccccc2F)c2cc(Cl)ccc21 (stereo not drawn)	8%
OC1(c2ccccc2F)CC2CCC(C1)N2CCN1CCOCC1 (stereo not drawn)	23%
CCN(c1ccc(C(O)(C(=O)OC)C(F)(F)F)cc1)S(=O)(=O)c1ccccc1 (stereo not drawn)	3%
O=C1NC(=O)C2(C(=O)N1)C(c1ccc(F)cc1)NC(=S)NC2c1ccc(F)cc1 (stereo not drawn)	-24%
Cc1ccc(/C=C2\C(=O)NC(=O)N(CCc3ccc(F)cc3)C2=O)s1	?
COC(=O)C1=C(c2ccc(F)cc2OCc2ccccc2)C[C@@H]2CC[C@H]1N2C(=O)NCc1ccc([N+](=O)[O-])cc1	-29%
COc1ccccc1OCC(=O)N1CCCC(N2CCN(c3ccc(F)cc3)CC2)C1 (stereo not drawn)	-7%
Fc1ccc(CCNCc2ccccc2Cl)cc1	4%
CNC1(c2ccc(F)cc2)CCCCC1	-26%

2 records drawn at random from the list so far:
SMILES	VDR inh
Cc1csc(=N)n1Cc1ccccc1	-12%
Cc1ccc(-c2nn(Cc3ccccc3)cc2C=O)cc1C	-10%
